RecA intein inh = Mtb RecA intein splicing inhibitors, primary screen, biochemical, fluorescence, HTS; AID 2221, 2009; 0.75% of 290,000 active; inhibition, %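 (about 9 µM by stock and volumes)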; cell-free RecA intein splicing; Protein RecA (Mycobacterium tuberculosis (strain ATCC 25618 / H37Rv)), P9WHJ3; in the data active = inhibition above about 30%; inconclusive = no clear call, values can overlap the other calls;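 also: 0% = vehicle wells and 100% = reference inhibitor control wells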
Target sequence (P9WHJ3 whole entry, looked up): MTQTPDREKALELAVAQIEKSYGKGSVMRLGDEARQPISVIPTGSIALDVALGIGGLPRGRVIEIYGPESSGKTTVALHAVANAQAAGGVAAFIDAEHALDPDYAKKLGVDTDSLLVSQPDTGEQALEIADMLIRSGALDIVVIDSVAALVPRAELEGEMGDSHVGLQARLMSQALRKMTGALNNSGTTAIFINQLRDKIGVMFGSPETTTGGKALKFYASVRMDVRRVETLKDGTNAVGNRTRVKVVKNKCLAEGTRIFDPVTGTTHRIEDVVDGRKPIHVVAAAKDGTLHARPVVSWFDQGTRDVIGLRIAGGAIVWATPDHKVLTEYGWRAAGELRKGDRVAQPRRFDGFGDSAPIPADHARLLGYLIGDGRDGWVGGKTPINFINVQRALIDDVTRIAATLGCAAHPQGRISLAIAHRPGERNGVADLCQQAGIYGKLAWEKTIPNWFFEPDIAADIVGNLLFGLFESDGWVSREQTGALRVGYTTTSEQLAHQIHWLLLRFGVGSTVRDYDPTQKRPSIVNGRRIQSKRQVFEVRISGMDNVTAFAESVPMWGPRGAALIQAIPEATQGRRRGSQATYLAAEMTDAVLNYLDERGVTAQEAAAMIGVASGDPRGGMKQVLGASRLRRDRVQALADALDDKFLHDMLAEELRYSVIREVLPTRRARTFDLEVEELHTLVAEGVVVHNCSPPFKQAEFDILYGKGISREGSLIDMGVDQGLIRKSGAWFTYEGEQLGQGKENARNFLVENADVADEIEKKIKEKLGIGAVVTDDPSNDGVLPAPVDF
Mtb betalactam = beta-lactam sensitization of Mtb H37Rv, H37Rv; M. tuberculosis H37Rv growth with meropenem, percent inhibition; hits of this screen are not shown here; 0.27% of 330,000 active; inhibition, % at 25 µM; AID 434955, 2010;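 active = about 74% or more and at least 40 points above the plate without the antibiotic, then above 30% in a dose series; inconclusive = first-round hits that could not be retested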;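 also: growth measured after seven days incubation then overnight dye step; 0% = bacteria only wells and 100% = bacteria with antibiotic; twin plates without the antibiotic show which effects depend on it; some results filed as inactive read as strong as hits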
YopH inh = YopH tyrosine phosphatase inhibitors, primary screen, biochemical, fluorescence Ex485/Em525; inhibition, %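 (about 10 µM by stock and volumes)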; 0.16% of 140,000 active; AID 898, 2007;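 active = inhibition of 50% or more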;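 also: controls were vehicle for no effect and minimum signal wells for full effect; inactives centre near -20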
Mtb growth = M. tuberculosis H37Rv growth inhibitors, H37Rv strain (AID 1626); 0.95% of 220,000 active; M. tuberculosis H37Rv growth inhibition; higher % means a stronger effect; inhibition, % at 10 µM, or IC50 in µM where a hit was titrated;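 active = confirmed in a dose series; inconclusive = inhibition above 80% but not taken into the dose series; inactive = below 80% or under 30% at every dose of the series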;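 also: bacteria incubated seven days before Alamar blue readout; 0% = bacteria only wells and 100% = bacteria with antibiotic wells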
Arbovirus anti = antivirals against arbovirus infection, primary screen, cell-based, full library, 10K replicate subset. arbovirus infection cell-based antiviral screen. inhibition, % at 10 µM. 0.37% of 200,000 active. AID 1251, 2008;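 active = inhibition from about 30%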;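 also: bluetongue infection of BSR cells; cell survival read as ATP light after 72 h; 0% = infected wells without compound and 100% = uninfected wells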
Arbovirus anti repeat = second read-out of Arbovirus anti, no call of its own (marks repeat the call); inhibition, %; measured here: 10K subset replicate screen; many hits read low in the repeat;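 first of two repeat runs on a subset; 0% = infected and 100% = uninfected wells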
* = called active by the depositor; ? = inconclusive; / = not tested or not shown; & = joins results of further samples. These rows are one share of the data (hit frequency here may not be typical).

SMILES	RecA intein inh	Mtb betalactam	YopH inh	Mtb growth	Arbovirus anti	others
O=c1oc(-c2ccc([N+](=O)[O-])cc2)nc2ccc(O)cc12	1.8	1	/	-3%	-4
COc1cc(C(=O)Nc2nnc(SCC(=O)NCC3CCCO3)s2)cc(OC)c1OC (stereo unspecified)	0.3	5	/	/	/
Cc1ccccc1Nc1nc(N)nc(CSCC(=O)Nc2cccc(Br)c2)n1	5.4	-2	-19	5%	1
N#Cc1c(-c2cccs2)cc(-c2ccccn2)nc1N	-2.4	/	-20	10%	1
CCOc1ccccc1NC(=O)c1ccc(S(=O)(=O)N2CCCCC2)cc1	-1.7	-1	/	/	/
Cc1c(C)n(Cc2ccccc2)c2ccc(C(=O)OCCCN(C)C)cc12	4.6	-5	/	-1%	-31
Nc1nnc(SCC(=O)Nc2cccc3ccccc23)s1	8.0	5	/	/	/
CC(=O)c1ccc(N2CCN(CC(O)COC(c3ccccc3)c3ccccc3)CC2)cc1 (stereo unspecified)	4.5	17	/	/	/
Cn1nc(C(F)(F)F)c(-c2ccc(Br)cc2)c1NC(=O)CSCC(=O)O	0.9	1	/	5%	/
C/C(N)=C(/C#N)C(=O)CSc1nnc(COc2ccccc2Cl)o1	1.1	-1	-50	-9%	-10
COC(=O)C1(C(=O)O)Cc2cc([N+](=O)[O-])ccc2N2CCCC21 (stereo unspecified)	0.1	-4	/	/	/
CC(=O)c1cc2c(cc1NC(=O)c1cnc(C)cn1)OCO2	1.6	?	5	4%	-4
CCc1cc(=O)oc2cc(C)cc(O)c12	-2.5	4	-43	-3%	0	Arbovirus anti repeat=-1
Cc1cccc(C)c1NC(=O)C1c2ccccc2Oc2ccccc21	-1.8	11	-28	/	8
CC(=O)Oc1ccc2oc(=O)c3c(c2c1)CCCN3C(=O)CN1CCN(c2ncccn2)CC1	3.1	-10	44	2%	9
Cc1cc2c(cc1S(=O)(=O)CCC(=O)N(C)Cc1ccccc1)OCC(=O)N2	-2.6	8	/	/	/
CCn1cc(S(=O)(=O)Nc2ccccc2C(F)(F)F)cn1	-0.1	-4	/	2%	10
O=C(Nc1ccc2c(c1)CCC2)c1ccc(F)c(S(=O)(=O)N2CCOCC2)c1	1.2	5	-11	8%	2
Cc1cc(NCCCn2ccnc2)n2nc(C)c(-c3ccccc3)c2n1	2.7	-1	-15	-3%	-12
NC(=O)C1CCN(C2CC(=O)N(c3ccc(F)c(Cl)c3)C2=O)CC1 (stereo unspecified)	1.5	-1	-10	5%	3
Cn1c(SCC(=O)O)nnc1-c1ccc(NC(=O)c2ccc(Cl)c(Cl)c2)cc1	1.5	-10	/	-3%	/
c1ccc(-n2c(Cc3cccnc3)nc3cnccc32)cc1	4.2	7	7	-3%	/
CN(Cc1ccccc1)C(=O)COC(=O)c1ccccc1Nc1ccccc1	12	0	-26	12%	11
CCOC(=O)C1CCN(C(=O)/C(=C/c2ccccc2)NC(=O)c2ccccc2)CC1	-1.2	-8	/	/	/
COc1ccc(NC(=O)NC(C)c2ccncc2)cc1OC (stereo unspecified)	-0.8	-11	-16	3%	3
Cc1ccc(C2(c3noc(CN4CCOCC4)n3)CCCC2)cc1	-12	-2	/	6%	8
Cc1cccc(C)c1NC(=O)C[n+]1cc(-c2ccccc2)n2c1CCC2	-4.7	-2	/	-3%	/
Cc1ccc(SCC(=O)NC(C)c2ccccc2)cc1 (stereo unspecified)	0.1	-4	/	/	/
COC(=O)CSC1=NP(=S)(SCC(=O)OC)N2CCCC2=C1C#N (stereo unspecified)	/	-12	-51	-4%	4
CCOC(=O)C1=C(O)C(=O)N(c2ccc(S(N)(=O)=O)cc2)C1c1ccccc1 (stereo unspecified)	-0.7	-4	4	0%	1
Cc1ccc(NC(=O)Cn2c(CCC(=O)O)ccc2-c2cccs2)cc1Cl	2.2	-2	/	-1%	-3
CSC1=C(C#N)C(CC(C)C)C2=C(CCCC2=O)N1 (stereo unspecified)	-0.7	10	-23	-6%	-2
CCOC(=O)c1c(NC(=O)COC(=O)c2ccccc2NC)sc(C(=O)N(C)C)c1C	0.8	3	/	/	/
O=C(NCCCCCCNC(=O)OCCO)OCCO	-5.6	-5	/	2%	16
O=S(=O)(c1cccc(-c2nnc3n2CCCCC3)c1)N1CCOCC1	-1.2	-1	/	-8%	/
COc1ccc(CCNC(=O)CSc2ncnc3c2oc2ccccc23)cc1OC	1.3	-7	-27	6%	1
CNC(=S)NNC(=O)c1sccc1OCc1ccccc1	-0.7	11	-30	-4%	-5
CN1CCCC(C(=O)c2ccc(-c3ccccc3)cc2)C1 (stereo unspecified)	3.3	-2	/	/	/
COC(=O)c1ccsc1NC(=O)CN1CCN(Cc2ccc3c(c2)OCO3)CC1	2.0	-6	-44	-8%	1
CC1CN(C(=O)CCN2C(=O)c3ccccc3C2=O)CC(C)O1 (stereo unspecified)	-1.9	0	7	-1%	-2
CCO[C@H]1OC(C(=O)NC2CC2)=C[C@@H](c2c[nH]c3ccccc23)[C@@H]1CCCO	-2.6	-6	/	-9%	/
CC(=O)Nc1ccc(NC(=S)NC(=O)c2ccc([N+](=O)[O-])cc2)cc1	1.7	5	-25	-3%	4
Cc1ccc(NC(=O)Nc2cnccn2)c(C)c1	3.3	-7	/	/	/
CCCc1cc(=O)oc2cc(OCC(=O)N3CCOCC3)c(Cl)cc12	0.8	0	/	/	/
Cc1ccc(S(=O)(=O)N/N=C\C=C\c2ccccc2)cc1	1.4	7	-6	4%	-4
C#CCOCCOCCOCCNc1nc(N2CCN(C(=O)C([C@@H](C)CC)n3cc(C(N)Cc4ccc(O)cc4)nn3)CC2)nc(N2CCN(C(=O)[C@H](CCC(=O)O)n3cc(C(N)Cc4ccc(O)cc4)nn3)CC2)n1 (stereo partly specified)	-0.8	0	/	-14%	-2
Cc1ccc(NC(=O)C2CCN(C(=O)[C@@H]3Cc4ccccc4CN3)CC2)c(C)c1	-0.3	2	/	/	/
NS(=O)(=O)c1cccnc1Nc1c(Cl)cccc1Cl	2.7	99	-24	5%	-6
O=C(O)c1[nH]c2ccc(Br)cc2c1CCN1C(=O)c2cccc([N+](=O)[O-])c2C1=O	-1.0	-11	/	-6%	/
O=C(CC1CCCC1)NCCc1cn2ccccc2n1	4.8	-1	-45	/	-4
(more compounds)
SMILES	RecA intein inh	Mtb betalactam	YopH inh	Mtb growth	Arbovirus anti	others
CCc1ccc(OCC(=O)N2CCN(Cc3ccc4c(c3)OCO4)CC2)cc1	0.3	-4	/	-4%	-16
CCN(CC)C(=O)C1CCCN(c2ccc([N+](=O)[O-])cc2/C=N/NC(=O)c2ccccc2)C1 (stereo unspecified)	-3.8	3	-4	9%	10
CC(=O)c1ccc(C(=O)N2CCc3c([nH]c4ccccc34)C2c2cccc(C)n2)s1 (stereo unspecified)	2.2	6	/	3%	/
Cc1ccnc(NS(=O)(=O)c2ccccc2)c1	-0.6	-2	/	/	/
Cn1c(NNC(=O)c2ccccc2F)cc(=O)n(C)c1=O	0.1	10	/	-4%	/
COc1ccc(S(=O)(=O)N2CCN(CC(=O)Nc3cccc(F)c3)CC2)cc1	0.7	0	-39	/	-1
CCc1ccc(NC(=O)C(=O)N/N=C(\C)CC(=O)NCCOC)cc1	0.0	81	/	79%	0
CCCCc1nc2cc(C(=O)NCc3cn(C)nc3C)ccc2o1	-0.2	-4	/	/	/
CC(C)(C)N(NC(=O)OCc1ccccc1)C(=O)c1ccccc1Cl	5.3	1	-18	-1%	2
CC(C)Cn1c(SCC#N)nc2ccccc2c1=O	1.6	-8	-33	4%	3	Arbovirus anti repeat=-5

Sorted by formula weight (smallest number first): part of the list above.
SMILES	RecA intein inh	Mtb betalactam	YopH inh	Mtb growth	Arbovirus anti	others
Cc1ccc(NC(=O)Nc2cnccn2)c(C)c1	3.3	-7	/	/	/
O=C(CC1CCCC1)NCCc1cn2ccccc2n1	4.8	-1	-45	/	-4
CC(C)Cn1c(SCC#N)nc2ccccc2c1=O	1.6	-8	-33	4%	3	Arbovirus anti repeat=-5
CN1CCCC(C(=O)c2ccc(-c3ccccc3)cc2)C1 (stereo unspecified)	3.3	-2	/	/	/
Cn1c(NNC(=O)c2ccccc2F)cc(=O)n(C)c1=O	0.1	10	/	-4%	/
Cc1ccc(S(=O)(=O)N/N=C\C=C\c2ccccc2)cc1	1.4	7	-6	4%	-4
CC1CN(C(=O)CCN2C(=O)c3ccccc3C2=O)CC(C)O1 (stereo unspecified)	-1.9	0	7	-1%	-2
NS(=O)(=O)c1cccnc1Nc1c(Cl)cccc1Cl	2.7	99	-24	5%	-6
CNC(=S)NNC(=O)c1sccc1OCc1ccccc1	-0.7	11	-30	-4%	-5
CCc1ccc(NC(=O)C(=O)N/N=C(\C)CC(=O)NCCOC)cc1	0.0	81	/	79%	0
CC(=O)Nc1ccc(NC(=S)NC(=O)c2ccc([N+](=O)[O-])cc2)cc1	1.7	5	-25	-3%	4
CC(C)(C)N(NC(=O)OCc1ccccc1)C(=O)c1ccccc1Cl	5.3	1	-18	-1%	2
CCCc1cc(=O)oc2cc(OCC(=O)N3CCOCC3)c(Cl)cc12	0.8	0	/	/	/
CCc1ccc(OCC(=O)N2CCN(Cc3ccc4c(c3)OCO4)CC2)cc1	0.3	-4	/	-4%	-16
CCO[C@H]1OC(C(=O)NC2CC2)=C[C@@H](c2c[nH]c3ccccc23)[C@@H]1CCCO	-2.6	-6	/	-9%	/
Cc1ccc(NC(=O)C2CCN(C(=O)[C@@H]3Cc4ccccc4CN3)CC2)c(C)c1	-0.3	2	/	/	/
COc1ccc(S(=O)(=O)N2CCN(CC(=O)Nc3cccc(F)c3)CC2)cc1	0.7	0	-39	/	-1
CC(=O)c1ccc(C(=O)N2CCc3c([nH]c4ccccc34)C2c2cccc(C)n2)s1 (stereo unspecified)	2.2	6	/	3%	/
COC(=O)c1ccsc1NC(=O)CN1CCN(Cc2ccc3c(c2)OCO3)CC1	2.0	-6	-44	-8%	1
COc1ccc(CCNC(=O)CSc2ncnc3c2oc2ccccc23)cc1OC	1.3	-7	-27	6%	1
CCN(CC)C(=O)C1CCCN(c2ccc([N+](=O)[O-])cc2/C=N/NC(=O)c2ccccc2)C1 (stereo unspecified)	-3.8	3	-4	9%	10
C#CCOCCOCCOCCNc1nc(N2CCN(C(=O)C([C@@H](C)CC)n3cc(C(N)Cc4ccc(O)cc4)nn3)CC2)nc(N2CCN(C(=O)[C@H](CCC(=O)O)n3cc(C(N)Cc4ccc(O)cc4)nn3)CC2)n1 (stereo partly specified)	-0.8	0	/	-14%	-2

The results go on:
SMILES	RecA intein inh	Mtb betalactam	YopH inh	Mtb growth	Arbovirus anti	others
CCNC(=O)NC(=O)C(C)OC(=O)Cc1coc2cc3c(cc12)CCC3 (stereo unspecified)	0.4	6	/	8%	10
O=C(Nc1ccc(-c2nnc(-c3ccco3)o2)cc1)C(c1ccccc1)c1ccccc1	-3.0	-11	1	1%	-4
CCN(CC)c1cc(Cl)nc(N)n1	3.1	7	/	1%	1
Cc1ccc(-n2[nH]c(C)c(C=Nc3ccc4[nH]c(=O)[nH]c4c3)c2=O)cc1C	-10	1	-4	-4%	-7
CCOC(=O)c1[nH]ncc1CN1CCCC(C(=O)c2cc(Cl)ccc2OC)C1 (stereo unspecified)	-1.3	-6	/	1%	5
COCCN1C(=O)c2ccccc2C(C(=O)NCCN(C)C)C1c1ccc(F)cc1 (stereo unspecified)	1.9	7	9	-3%	9	Arbovirus anti repeat=0
Cc1ccc(Nc2n[nH]c(C)c2[N+](=O)[O-])cc1	1.7	7	-23	6%	0
CC(NC(=S)Nc1ccc(F)cc1)c1ccccc1 (stereo unspecified)	-0.2	-4	/	/	/
O=C(N/N=C/c1c[nH]c2ccccc12)c1cc2ccccc2o1	0.8	-10	/	/	/
CCN(CC)c1ccc(/C=C/c2ccc3ccc(OC)cc3[n+]2CC)cc1	1.6	92	/	/	/
CCN(C(=O)COC(=O)CSc1ccc([N+](=O)[O-])cc1)C1CCS(=O)(=O)C1 (stereo unspecified)	-2.5	2	/	/	/
CC(/C=N/NC(=O)c1cc(-c2ccc(Cl)cc2)nc2ccccc12)=C\c1ccco1	5.0	57	3	9%	-14
Cc1ccc(S(=O)(=O)N[C@@H](C)C(=O)N2CCC(C(=O)N3CCC[C@H]3C(=O)O)CC2)cc1	0.6&-1.9	-6	-16	-7%	4
CC(C)Nc1nc(NC(N)=S)nc(NC(C)(C)C)n1	-0.1	-2	/	-3%	-13
COc1ccc(-c2nnc(SCC(=O)N3CCCC3)o2)c(OC)c1	-1.1	3	/	/	/
O=C1CN(Cc2ccccc2)C(=NCc2ccco2)S1	10	-1	-8	-5%	-3

Screens: PubChem BioAssay, several laboratories
